# Menin MLL FP FL – inhibitors of human menin-MLL interaction, wild-type MLL peptide; FP activity change, % at 61.4 µM; Fluorescence polarization, fluorescein-MLL peptide displacement from menin; 290,000 tested, under 10 active; inconclusive = falling polarisation curve, or a change in total fluorescence; inactive = total fluorescence flat and polarisation flat or rising; no compound was filed as active; the % refers to the polarisation; negative = inhibition;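 further: % of control where 0% means no effect; inhibitors lower the polarisation; unlabelled MLL peptide was the positive control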
# gsp antagonist – antagonizes gsp, the McCune-Albright syndrome mutation; gsp-mutant cells, cAMP HTRF, 30 min; control for the full effect not named in the record; Potency, µM (doses to about 76.9 µM), without a hit: at the top dose activity change, negative = inhibition, most hits filed as inhibitors; hit rate 0.4% among 340,000; active = falling curve of any shape with a large fitted effect; inconclusive = falling curve, mostly with a smaller effect; inactive = flat or rising curve; cell line not stated here;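 further: intracellular cAMP measured with PDE inhibitor Ro 20-1724 present during compound exposure; potency means the concentration at half of the fitted maximal effect; on the % scale 0 is the no-effect control and ±100 the full control effect; nearly all actives have a fitted effect of over 65% in size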
#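 Cells, 2000/well, grown 16–24 h in DMEM 10% FBS with 0.5 mg/ml G418, then compounds plus […] (300 uM addition stock), 30 min at 37C. cAMP read by HTRF (cAMP-d2 and anti-cAMP antibody-K in lysis buffer) after 30 min RT.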
# TRPML1 blocker – blocks the human TRPML1 channel | hit rate 0.02% among 390,000 | Q9GZU1 | AID 624415 | activity change, negative = inhibition, % (test concentration not listed) | TRPML1-inducible cells, Ca2+ dye fluorescence, FDSS; stronger effect = lower value; inhibition of EC80 agonist-evoked calcium signal; in the data active means activity change below about -50%; inconclusive means about -30% to -50%; inactive means above about -30%;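 further: stimulus is agonist 54-4 at its EC80 concentration; on the % scale 0 is the no-effect control and ±100 the full control effect; compound concentration not given in the record; the text of the record puts the active cut at -80%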
# Target sequence (Q9GZU1 whole entry, looked up): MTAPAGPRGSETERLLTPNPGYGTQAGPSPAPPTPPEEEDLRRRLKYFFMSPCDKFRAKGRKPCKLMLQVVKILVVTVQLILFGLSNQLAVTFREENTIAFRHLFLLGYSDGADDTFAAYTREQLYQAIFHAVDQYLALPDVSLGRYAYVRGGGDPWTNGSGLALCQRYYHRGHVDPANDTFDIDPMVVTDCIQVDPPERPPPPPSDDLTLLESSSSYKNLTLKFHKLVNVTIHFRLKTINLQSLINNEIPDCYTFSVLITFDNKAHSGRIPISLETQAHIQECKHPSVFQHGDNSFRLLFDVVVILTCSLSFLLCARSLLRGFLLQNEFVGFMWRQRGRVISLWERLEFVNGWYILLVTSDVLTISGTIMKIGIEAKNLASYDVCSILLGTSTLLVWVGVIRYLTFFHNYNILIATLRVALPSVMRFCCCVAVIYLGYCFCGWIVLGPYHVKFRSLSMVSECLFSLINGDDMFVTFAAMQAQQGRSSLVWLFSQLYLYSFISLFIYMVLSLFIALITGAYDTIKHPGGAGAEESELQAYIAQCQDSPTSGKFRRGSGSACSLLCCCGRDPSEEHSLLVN
#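 Tet-induced TRPML1-DL cells loaded with Ca8 no-wash calcium dye were read kinetically on FDSS. Compound addition was followed by EC80 agonist 54-4 (4 uM final); inhibition was read over 110 s.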
# ClpP mod – qHTS Assay for Activators of ClpP. hit rate 1.9% among 340,000. AID 651965, 2013. purified B. subtilis ClpP, FRET peptide cleavage, 20 min. ATP-dependent Clp protease proteolytic subunit (Bacillus subtilis (strain 168)), P80244. Potency, µM (highest dose often 57.5 µM), for inactives: top-dose activity change, negative = active; active = well fitted falling curve with a large enough effect; inconclusive = small, poorly fitted or top-dose-only effect; inactive = no such curve, though single readings can be large or run the other way; further: potency means the concentration at half of the fitted maximal effect; the source files actives as falling curves though it sought activators and does not explain the sign; nearly all actives have a fitted effect of over 65% in size; many hits overshoot -100%
# Target sequence (P80244 whole entry, looked up): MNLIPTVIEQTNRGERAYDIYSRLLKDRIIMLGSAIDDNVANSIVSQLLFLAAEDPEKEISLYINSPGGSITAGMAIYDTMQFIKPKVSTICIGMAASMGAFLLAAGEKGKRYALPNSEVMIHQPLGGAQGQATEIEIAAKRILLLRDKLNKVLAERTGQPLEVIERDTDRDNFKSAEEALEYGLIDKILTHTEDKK
#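 ClpP 10 microg/mL final, pH 8 Tris/KCl buffer with BSA, glycerol, Tween-20; compound pinned in; FRET-FV substrate; RT 20 min; Ex320/Em430; ΔFRET vs ADEP 5.8 microM, DMSO, no enzyme.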
# gsp ag – gsp mutant agonism. gsp mutant cells, cAMP HTRF, 30 min; control for the full effect not named in the record. Potency, µM (titrated, usually from 76.9 µM), for the others: at the top dose activation (cAMP increase), usual class: activators. hit rate 0.13% among 340,000; active = well fitted activation curve with a large enough effect; inconclusive = small, poorly fitted or top-dose-only effect, or another doubt; inactive = no such curve, though single readings can be large or run the other way; cell line not stated here;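 further: phosphodiesterase inhibitor Ro 20-1724 added with compounds to block cAMP breakdown; potency means the concentration at half of the fitted maximal effect; nearly all actives have a fitted effect of over 60% in size; about a fifth of the inactives were tested at one dose only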
#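 Cells in DMEM/10% FBS with G418 were pretreated with compounds in DMSO plus […] (300 uM stock) for 30 min at 37C. cAMP was measured by HTRF (cAMP-d2 plus anti-cAMP antibody-K) after 30 min at room temperature.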
# TRPML1 agonist – activates the human TRPML1 channel; Q9GZU1; TRPML1-expressing cells, Ca2+ dye fluorescence, FDSS; host cell line not named in the record; reference of the full effect not given here; AID 624414; activation, % (no concentration beside the values); hit rate 0.12% among 410,000; in the data active = activation above about 50%; inconclusive = about 30% to 50%; inactive = below about 30%; further: 0% is about no effect; the text of the record puts the active cut at 80%
#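 TRPML1-DL cells, Tet-induced overnight (~16 h, 37 degrees C), loaded 45-90 min at room temperature with Ca8 no-wash calcium dye plus quencher. FDSS fluorescence: 10 s baseline, compound pin-transfer, 110 s agonist read, then EC80 54-4 (4uM final) and 110 s antagonist read.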
# An asterisk follows results filed as active; ? = inconclusive; nt = no result given; & = joins results of further samples; [ ] = dose if it differs, or a comment.
SMILES	Menin MLL FP FL	gsp antagonist	TRPML1 blocker	ClpP mod	gsp ag	TRPML1 agonist
Cc1cnc(NC(=O)CSc2nnc3ncccn23)s1	-0.4	13%	3	nt	-3%[15.4 µM]	-0.2
COc1ccc(C2=NN(CCC(=O)NCc3ccc4c(c3)OCO4)C(=O)CC2)cc1	0.2	2%	0	-3.0%	8%	2.3
COc1ccc(C2=Nc3ccccc3NC(=O)C2N(Cc2ccc(F)cc2)C(=O)c2ccco2)cc1 (stereo not drawn)	nt	nt	14	-5.4%	nt	-0.2
CCCCC(=O)NC1(C(F)(F)F)C(=O)N(Cc2ccco2)C(C)=C1C(=O)OC (stereo not drawn)	0.8	15%	8	1.4%	17%	0.2
Cc1ccc(Cn2ccc(NC(=O)c3noc4c3CCCCC4)n2)cc1	5.5	-4%	6	-16%	-19%	0.5
CCC(C)NC(=O)C(NS(=O)(=O)c1ccc2c(c1)c(=O)n(C)c(=O)n2C)c1ccccc1 (stereo not drawn)	5.8	3%	16	-14%	20%	-0.6
O=C(CC1SC(N2CCOCC2)=NC1=O)Nc1cccc(C(F)(F)F)c1 (stereo not drawn)	nt	14%	2	0.7%	-14%	4.2
COc1ccc(Nc2nc(N3CCN(S(C)(=O)=O)CC3)nc3ccccc23)c(OC)c1	-5.0	-14%	3	nt	?	-0.8
Fc1ccccc1Nc1nc(-c2ccncc2)nc2ccccc12	-0.2	-7%	25	nt	4%[15.4 µM]	3.3
COCCCNC(=O)C1CCN(S(=O)(=O)c2ccc3nc4c(c(C(=O)O)c3c2)CCCCC4)CC1	2.5	20%	7	-0.4%	?	-0.3
O=C(Nc1ccccc1)c1ccc(Br)c(S(=O)(=O)N2CCCCC2)c1	nt	nt	61	-4.8%	nt	0.6
CC(C)C(=O)Nc1nnc(S(=O)(=O)N2CCCc3ccccc32)s1	0.0	5%	-9	1.0%	23%	5.7
CC1CC(C)CN(C(=O)CSc2ccsc2[N+](=O)[O-])C1 (stereo not drawn)	-2.4	-3%	20	-0.9%	-11%	-0.7
O=C(CCCn1cnc([N+](=O)[O-])n1)Nc1ccc(F)c(Cl)c1	1.4	8%	-12	-1.9%	-18%	-0.3
CC1CN(S(=O)(=O)c2ccc(C(=O)OCc3ccc(C#N)cc3)cc2)CC(C)O1 (stereo not drawn)	nt	-9%	8	-0.3%	-74%[inhibitor]	-1.5
CCCCOC(=O)Nc1ccc(C)c(Cl)c1	1.5	-7%	-3	-1.5%	-22%	-0.3
CCCc1nc2n[nH]c(N)c2c2c1CCCC2	6.9	-19%	5	-0.1%	7%	-0.2
N#Cc1cccc(NC(=O)C2CCN(c3cnccn3)CC2)c1	nt	nt	-4	-15%	nt	0.2
CC1=C(C)CC(C(=O)Nc2cccc([N+](=O)[O-])c2)C(C(=O)O)C1 (stereo not drawn)	9.5	-12%	-4	-0.4%	1%	-0.7
Cc1cc2nnc(SC3CCCCN(C(=O)c4ccc(F)cc4)C3=O)n2c2ccccc12 (stereo not drawn)	-0.5	-16%	-10	-2.2%	27%	0.8
CC1CCc2sc3nc(NCc4ccco4)n4ncnc4c3c2C1 (stereo not drawn)	0.3	0%	76	-13%	16%	1.5
CCCN1CNC(=S)N(c2ccc(C(=O)OCC)cc2)C1	-1.3	-12%	18	-0.8%	-25%	0.5
COc1ccc(NS(=O)(=O)c2cccc(C(=O)NCCCN3CCCC3=O)c2)cc1	nt	7%	-2	nt	-10%[15.4 µM]	2.2
CC1(C)CC(=O)C2=C(C1)OC(N)=C(C#N)C2CCc1ccccc1 (stereo not drawn)	2.1	-7%[15.4 µM]	-2	-2.0%	-57%[inhibitor]	1.7
N#C/C(=C\c1ccc(Cl)cc1)c1nc(-c2cc3ccccc3oc2=O)cs1	nt	nt	20	-0.5%	nt	-0.3
Cc1nc2sccn2c(=O)c1CCN1CCC(=C(c2ccc(F)cc2)c2ccc(F)cc2)CC1	0.4&-3.1&2.2	?	18	-13%	nt	-0.4
C[C@H]1CN([C@@H](C)CO)C(=O)CCCn2nncc2CO[C@@H]1CN(C)S(=O)(=O)c1ccccc1	nt	nt	5	0.8%	-16%	-0.3
O=C(Cn1c(COc2ccc(Cl)cc2)nc2ccccc21)NCC(F)(F)F	5.4	13%	1	-1.1%	-9%	0.8
O=c1cc(CSc2nc3ccccc3c(=O)[nH]2)c2ccc(O)cc2o1	17	?	19	nt	11%[15.4 µM]	2.1
Cc1cccc(NC(=O)c2cccc(Cn3cc(Br)c([N+](=O)[O-])n3)c2)c1C	3.4	4%	13	?	1%	-0.1
COc1ccc(C(=O)OC(C)CN2CCOCC2)cc1OC (stereo not drawn)	0.0	6%	-15	-1.7%	14%	1.0
CCC(=O)Nc1cccc(C2=NOC3(C2)C[C@@H](C(N)=O)N(C(=O)c2cc([N+](=O)[O-])cc([N+](=O)[O-])c2C)C3)c1 (stereo partly drawn)	4.3	1%	1	1.0%	nt	-0.7
Cc1cc(-c2ccc(Cl)cc2)oc(=O)c1NC(=O)c1ccccc1	5.0	-6%	34	?	-6%	0.1
CSc1nc2ccccc2nc1N(C)S(=O)(=O)c1ccc(C)cc1	-0.1	2%	-5	nt	0%[15.4 µM]	0.5
CCCC12CN3CCN(CC(C3)/C1=N\NC(=O)c1ccc(F)cc1)C2	2.1	2%	-3	nt	-4%[15.4 µM]	-0.7
COc1cc(S(=O)(=O)N(C)C)ccc1Br	-2.5	1%	-1	-0.7%	8%	-0.6
O=S(=O)(c1ccccc1)N1CCN(C(=S)Nc2ccccc2Cl)CC1	5.2	3%	5	-1.9%	-4%	0.6
COc1ccc(C(=O)Nn2c(C)nc3ccccc3c2=O)cc1Br	-11	-9%	14	-5.2%	-3%	1.9
COc1ccc(NC(=O)C2CCN(c3ncnc4c3nc3n4CCCCC3)CC2)c(OC)c1	16	-28%	-20	1.6%	?	-0.2
O=C(COC(=O)CNC(=O)c1ccccc1F)NCCNC(=O)COC(=O)CNC(=O)c1ccccc1F	nt	14%	0	-0.6%	0%	-0.9
COC(=O)c1c(NC(=O)C(=O)NCCCN2CCOCC2)sc2c1CCC2	3.1	4%	-5	-0.7%	-25%	-0.5
CCOC(=O)C1(Cc2cccc(OC)c2)CCCN(Cc2nccn2CC)C1 (stereo not drawn)	0.7	9%	19	nt	-32%[inhibitor]	1.2
CC(=O)Nc1ccc(NC(=O)CC2SC(=O)N(CC(=O)c3ccccc3)C2=O)cc1 (stereo not drawn)	-2.7	-9%	-5	nt	7%[15.4 µM]	0.1
CC(C)CN(C(=O)COC(=O)Cc1c[nH]c2ccccc12)C1CCS(=O)(=O)C1 (stereo not drawn)	3.6	-11%	3	-1.3%	-29%	1.4
Cc1ncc2c(n1)NC(=O)NC2	nt	8%	19	nt	-6%	-0.3
O=C(NC1CCCCC1)c1cccc(NC(=O)c2ccccc2Cl)c1	nt	nt	27	-4.7%	7%	-0.5
CSc1ccc(C#N)cc1NC(=O)c1cccc(Cl)c1	4.5	-13%	-4	-15%	-24%	-1.2
CCOc1ccc(S(=O)(=O)NCCC(=O)N2CCCC(C)C2)cc1 (stereo not drawn)	nt	3%	13	-0.9%	1%[15.4 µM]	0.0
Cc1ccc(CNC(=O)CCCC(=O)Nc2cc(C)on2)cc1	-1.3	1%	11	nt	-8%[15.4 µM]	1.7
OC[C@H]1O[C@@H](n2cnc3c(NCc4ccco4)ncnc32)[C@H](O)[C@@H]1O	-0.3&12	-4%	24	-0.6%	nt	0.7

# Three entries already listed, arranged by the number in gsp antagonist, descending.
Structure	gsp antagonist
CSc1nc2ccccc2nc1N(C)S(=O)(=O)c1ccc(C)cc1	2%
Cc1cc(-c2ccc(Cl)cc2)oc(=O)c1NC(=O)c1ccccc1	-6%
CSc1ccc(C#N)cc1NC(=O)c1cccc(Cl)c1	-13%

# Further structures:
SMILES	Menin MLL FP FL	gsp antagonist	TRPML1 blocker	ClpP mod	gsp ag	TRPML1 agonist
CCCCC[C@@H]1C=C(C(=O)O)[C@H](c2ccc(OC)c(OC)c2)N1S(=O)(=O)c1ccc(C)cc1	nt	-6%	-9	-2.9%	nt	1.4
Cc1ccc(C(=O)N2CCN(c3ncccn3)CC2)o1	-1.8	9%	-10	-5.1%	0%	-0.7
CCCn1c(=N)c(S(=O)(=O)c2ccccc2)cc2c(=O)n3ccccc3nc21	7.0	-4%	66	1.0%	9%[15.4 µM]	1.7
Cc1ccc(C23CC4CC(CC(C(=O)N(C)C)(C4)C2)C3)cc1	-9.9	3%	30	nt	-7%	0.2
Cc1ccc(C(=O)Nc2nc3nc(C)cc(=O)n3[nH]2)cc1	nt	nt	-7	-1.2%	nt	-0.3
CCOC(=O)N1CCN(C(=O)C2CCN(CC3CCCCC3)CC2)CC1	-0.1	11%	-13	0.8%	-58%[inhibitor]	0.8
S=C(NCCCc1ccccc1)Nc1ccc(Br)cc1	nt	-22%	26	0.6%	-23%	1.9
O=C(C1CCC(=O)N(C2CC2)C1)N1CCN(c2ccccc2Cl)CC1 (stereo not drawn)	-3.0	-4%	-7	-0.6%	10%	-0.9
NNC(=O)C1=NOC(CNc2ncc(C(F)(F)F)cc2Cl)C1 (stereo not drawn)	2.0	7%	-2	-0.5%	8%	-0.3
Cc1[nH]c(SCC(=O)c2c(N)n(C)c(=O)n(C)c2=O)nc1Cc1ccccc1	nt	1%	-7	3.3%	-2%	-0.6
Cc1ccc2nc(NC(=O)CN3C(=O)C4CC=CCC4C3=O)sc2c1 (stereo not drawn)	0.2	3%	7	nt	13%[15.4 µM]	1.3
Cc1ccc(Nc2nc(-c3ccc(F)cc3)cs2)nc1	-4.9	-6%	-5	1.8%	7%	0.0
O=C(Nc1ccc2ccccc2c1)c1ccc(Cl)cc1Cl	-7.1	-18%	-9	8.5%	-47%[inhibitor]	0.9
Nc1cc(OC(=O)c2cccs2)nn1S(=O)(=O)c1ccc(F)cc1	-0.8	11%	0	-0.3%	-23%	3.4
Cc1nc(-c2ccc(S(=O)(=O)NCc3ccc(OC(C)C)cc3)cc2)co1	nt	nt	47	-3.1%	nt	2.6
CCn1c(-c2ccccc2)c(C(=O)O)c2ccccc21	3.1	-2%	7	?	-22%	0.0

# Screening results (PubChem)
